KAT2A inh: blocks human GCN5L2 histone acetyltransferase | Potency, µM (top dose mostly 58.9 µM), for the others: top-dose activity change, negative = inhibition, actives largely listed as inhibitors | actives 0.21% (n = 390,000) | GCN5L2 HAT assay, ThioGlo1 CoA-SH fluorescence | Q92830; active means well fitted inhibition curve with a large enough effect; inconclusive means small, poorly fitted or top-dose-only effect, or another doubt; inactive means no such curve, though single readings can be large or run the other way
Target sequence (Q92830 whole entry, looked up): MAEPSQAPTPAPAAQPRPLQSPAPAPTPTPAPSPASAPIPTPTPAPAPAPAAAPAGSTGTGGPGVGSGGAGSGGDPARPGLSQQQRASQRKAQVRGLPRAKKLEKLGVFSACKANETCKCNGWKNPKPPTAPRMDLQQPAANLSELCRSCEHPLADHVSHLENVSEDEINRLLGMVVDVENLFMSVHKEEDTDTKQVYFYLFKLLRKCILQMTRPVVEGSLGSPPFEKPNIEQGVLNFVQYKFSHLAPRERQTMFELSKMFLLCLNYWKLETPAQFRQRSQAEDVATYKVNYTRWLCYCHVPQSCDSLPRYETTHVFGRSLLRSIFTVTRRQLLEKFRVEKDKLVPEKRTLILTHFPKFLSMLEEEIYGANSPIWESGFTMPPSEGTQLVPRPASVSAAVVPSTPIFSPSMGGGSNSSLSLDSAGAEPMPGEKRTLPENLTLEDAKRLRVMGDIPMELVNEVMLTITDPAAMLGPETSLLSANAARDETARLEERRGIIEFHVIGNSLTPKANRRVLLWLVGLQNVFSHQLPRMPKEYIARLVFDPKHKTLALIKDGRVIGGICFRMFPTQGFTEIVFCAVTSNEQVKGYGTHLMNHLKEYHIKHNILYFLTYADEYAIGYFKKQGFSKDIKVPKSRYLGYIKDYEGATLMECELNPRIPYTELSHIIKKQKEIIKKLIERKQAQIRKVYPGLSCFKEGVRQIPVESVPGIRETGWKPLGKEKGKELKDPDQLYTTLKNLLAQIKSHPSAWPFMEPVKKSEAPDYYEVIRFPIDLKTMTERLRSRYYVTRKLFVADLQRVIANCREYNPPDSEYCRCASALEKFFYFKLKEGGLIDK
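ThioGlo1-coupled HAT assay: 20nM GCN5L2, 70uM acetyl-CoA, 75uM H3(1-25) peptide, pH 7.5. Fluorescence read at 340/540nm at start and after 20 min at room temperature.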
An asterisk follows results filed as active; ? = inconclusive; & = joins results of further samples; [ ] = remark or other dose. On the % scale 0 is the no-effect control and ±100 the full control effect; potency means the concentration at half of the fitted maximal effect. An excerpt, and most or all hits are left out here.

KAT2A inh,smiles
-2.0%,CCOc1ccc(NC(=O)CC2S/C(=N/N=C3CCCCCC3)NC2=O)cc1 (configuration not stated)
-3.9%,Cc1ccc(C(=O)CSc2nnc(-c3cccnc3)n2N)cc1
-3.3%,COc1ccc2nc3c(c(-c4ccccc4)c2c1)CCC3
-2.2%,CC(C)[C@@H]1CC[C@@H](C)C[C@H]1OC(=O)C[n+]1cc(-c2ccc(Cl)cc2)n2c1CCCCC2
3.2%,CC(C)NC(=O)Cn1c(SCC(=O)NC2CCCC2)nc2ccccc21
2.5%[21.4 µM],O=C(N[C@@H](CO)[C@@H](O)c1ccc([N+](=O)[O-])cc1)C(Cl)Cl
2.6%,Cc1ccccc1NC(=S)N(CCCN1CCOCC1)Cc1cccs1
0.4%,COCC(=O)NNC(=O)c1ccc(OC)cc1
-8.5%,CCCC1(C(=O)OC)NC(c2ccc(OC)c(OC)c2)C2C(=O)N(c3ccc4c(c3)OCO4)C(=O)C21 (configuration not stated)
-0.5%,COc1cccc(CN2CC(C(=O)NCCSc3nnnn3C)CCC2=O)c1 (configuration not stated)
-8.1%,COc1ccc(C2C(C#N)=C(N)Oc3cc4c(cc32)OCO4)cc1 (configuration not stated)
-0.7%,CC1CCCN(C(=O)COC(=O)c2n[nH]c3ccccc23)C1 (configuration not stated)
-2.2%,CCOC(=O)c1c(C)n(C)c2cc(-c3ccc(F)cc3)c(O)cc12
3.3%,COc1ncnc(OC)c1NC(=O)c1ccc(F)cc1
-5.3%,Cn1c(=O)c2cc(S(=O)(=O)N3CCN(c4cccc(C(F)(F)F)c4)CC3)ccc2n(C)c1=O
-12.2%,CN(CC(=O)Nc1ccc(Cl)c(C(F)(F)F)c1)C(=O)Cc1n[nH]c(=O)c2ccccc12
-5.4%,O=C(NCC(c1ccco1)N1CCCCC1)c1ccc(S(=O)(=O)Nc2ccccc2Cl)cc1 (configuration not stated)
-3.2%,COc1ccc(CC(=O)Nc2c3c(nn2C(C)(C)C)CS(=O)C3)cc1 (configuration not stated)
0.9%,CCc1noc(C)c1C(=O)NC1CCCc2c1cnn2-c1ccc(C(C)(C)C)cc1 (configuration not stated)
-3.7%,CCOC(=O)c1cc(C)nc(Sc2ccc(C)cc2)c1C#N
37.0%[activator],Cc1ccc(-c2nnc(C)c(N3CC(C)OC(C)C3)n2)cc1 (configuration not stated)
1.9%,CC1CC(C)(C)NC(=S)N1CCCC(=O)Nc1ccc(Cl)cc1 (configuration not stated)
-7.5%,CCCc1noc2c1/C(=N\O)CCC2
-1.0%,CCOC(=O)c1snc2c(=O)[nH]cnc12
-11.7%,Cc1c(C(=O)O)cccc1[N+](=O)[O-]
3.1%,COc1ccccc1N1CCN(CCCC(=O)c2ccc(F)cc2)CC1
1.5%,O=C(c1ccc([N+](=O)[O-])s1)N1CCN(c2ccccc2)CC1
-0.6%,C=CC(=O)NCc1ccc(-c2csnn2)cc1
0.1%&-5.2%,Cc1ccc(-c2cc(C(=O)NCc3cnn(C)c3)c3cc(Br)ccc3n2)cc1
8.7%,O=C(/C=C/c1ccc(Cl)cc1)NCCSc1ccccc1
25.4%,CCc1c(C)nc2ncnn2c1NCCc1ccccc1
-3.9%,O=C(N/N=C1\CCCc2ccccc21)c1cccc(Br)c1
-9.4%,COc1cc2nc(N3CCN(C(=O)[C@@H]4CCCO4)CC3)nc(N)c2cc1OC
0.3%,Cc1cc2n(n1)CCCN2C(=O)Nc1ccc(Cl)cc1
-21.4%,Cc1cc(C(=O)OCC(=O)c2cccc([N+](=O)[O-])c2)c2ccccc2n1
-7.0%,Cc1ccc(CNC(=O)COC(=O)c2cnc(C)cn2)cc1

In another format: entries from further up.
SMILES,KAT2A inh
COc1ccc(CC(=O)Nc2c3c(nn2C(C)(C)C)CS(=O)C3)cc1 (configuration not stated),-3.2%
CCc1noc(C)c1C(=O)NC1CCCc2c1cnn2-c1ccc(C(C)(C)C)cc1 (configuration not stated),0.9%
CCOC(=O)c1cc(C)nc(Sc2ccc(C)cc2)c1C#N,-3.7%
Cc1ccc(-c2nnc(C)c(N3CC(C)OC(C)C3)n2)cc1 (configuration not stated),37.0%[activator]
CC1CC(C)(C)NC(=S)N1CCCC(=O)Nc1ccc(Cl)cc1 (configuration not stated),1.9%
CCCc1noc2c1/C(=N\O)CCC2,-7.5%
CCOC(=O)c1snc2c(=O)[nH]cnc12,-1.0%
Cc1c(C(=O)O)cccc1[N+](=O)[O-],-11.7%
COc1ccccc1N1CCN(CCCC(=O)c2ccc(F)cc2)CC1,3.1%
O=C(c1ccc([N+](=O)[O-])s1)N1CCN(c2ccccc2)CC1,1.5%
C=CC(=O)NCc1ccc(-c2csnn2)cc1,-0.6%
Cc1ccc(-c2cc(C(=O)NCc3cnn(C)c3)c3cc(Br)ccc3n2)cc1,0.1%&-5.2%
O=C(/C=C/c1ccc(Cl)cc1)NCCSc1ccccc1,8.7%
CCc1c(C)nc2ncnn2c1NCCc1ccccc1,25.4%

More results
KAT2A inh,smiles
-2.6%,COc1ccc(OC)c(/C=C(/C#N)c2nc(-c3ccc(-c4ccccc4)cc3)cs2)c1
-4.2%,O=C(CCCOc1ccccc1)Nc1nnc(C2CCCO2)s1 (configuration not stated)
0.8%,Cn1c(=O)c2ncn(CC(=O)NCCOCc3ccccc3Cl)c2n(C)c1=O
-8.0%,COc1ccccc1N/C(N)=N/c1nc(C(F)(F)F)cc(=O)[nH]1
-1.3%,CCCCn1nc2cc(C(=O)NC3CCCc4ccccc43)ccc2c1OCC (configuration not stated)
-4.1%,Cc1nn(-c2ccc(N3CCCCC3)nn2)c(C)c1CCC(=O)Nc1cc(F)ccc1F
2.2%,NCc1ccc(S(N)(=O)=O)cc1
-11.2%,O=C1CC(/C=C/c2ccccc2)=Nc2ccccc2N1
1.5%,O=C(COc1ccccc1-c1ccccc1)N/N=C/c1ccncc1
0.9%,CC(C)n1c(=O)c2oc3ccccc3c2n(Cc2ccccc2F)c1=O
0.8%,COc1ccc(C)cc1NS(=O)(=O)c1ccc2oc(=O)c3ncn(C)c3c2c1
-5.7%,O=C(NCc1ccc2c(c1)OCO2)c1ccc(CS(=O)Cc2cccc(Cl)c2)o1 (configuration not stated)
-7.6%,O=C(Cn1c(=O)oc2ccccc21)NCCc1ccccc1Cl
-2.4%,COc1ccc(CNC(=O)C(C)NS(=O)(=O)c2ccc(C)cc2)cc1 (configuration not stated)
22.6%,O=C(Nc1ncn[nH]1)c1ccccc1Br
-19.5%,COc1cc(NC(=O)CSc2nc(C)cs2)cc(OC)c1
4.2%,CCOC(=O)N1CCC(NC(=O)Cn2cccc2C(=O)c2ccccc2C)CC1
0.5%,CCOC(=O)C1=C(COC(=O)/C=C/c2ccc(Cl)cc2)NC(=O)NC1C (configuration not stated)
-0.4%,CC1CCCN(Cc2nc3c(c(=O)n(C)c(=O)n3C)n2CCc2ccccc2)C1 (configuration not stated)
-0.8%,C=CCNC(=O)C(=O)NN=C1CCN(C)CC1
-3.5%,CCCN(C(=O)CSCc1ccccc1C)c1c(N)n(Cc2ccccc2)c(=O)[nH]c1=O
-6.4%,Cc1cc(=O)c2cc(C(=O)Nc3ccc(C)c(C)c3)ccc2[nH]1
-5.1%,NC(N)=NN=Cc1c(Cl)cccc1Cl
-2.9%,Cc1ccc(N2CCN(S(=O)(=O)N3CCCCC3)CC2)cc1C
-3.1%,COc1ccc(C)cc1S(=O)(=O)N1c2ccc(C)cc2C2CN(C)CCC21 (configuration not stated)
-10.1%,CCS(=O)(=O)Nc1cccc(C2=NN(S(=O)(=O)c3ccc(C)cc3)C(c3cccs3)C2)c1 (configuration not stated)
1.0%,Cc1ccccc1NC(=O)CCN1CCCC1
-2.0%,Cc1cccc(NC(=O)C(=O)NCC(c2ccc3c(c2)OCO3)N2CCOCC2)c1C (configuration not stated)
-4.5%,CCC(C)/C(C)=N/NC(=O)c1ccc(COc2ccc(Cl)c(C)c2)cc1 (configuration not stated)
-2.7%,CC#CC(=O)N1CCC(n2nccc2NC(=O)c2ccc3c(c2)OCO3)CC1
1.5%,CC(=O)Nc1ccc(S(=O)(=O)N2CCN(C(=O)c3ncoc3-c3cccc(C)c3)CC2)cc1
?,COc1cc(OC)cc(-c2c(-c3ccc(F)cc3)c3cc(-c4cccc5[nH]ccc45)ccc3n2C)c1
-12.3%,Cc1ccc(CSc2cn(CCNC(=O)c3cccs3)c3ccccc23)cc1
0.8%,O=C(O)c1cccc(S(=O)(=O)Nc2cccc3ccccc23)c1
4.3%,C[C@H](OC(=O)n1ccnc1)[C@@H]1O[C@@]2(C)CCC[C@@H]1O2
-2.6%,CCN(CC(=O)NCc1cccs1)C(=O)c1ccccc1F
-0.5%,CC(=O)NCCC(=O)Nc1sc2c(c1-c1nc3ccccc3[nH]1)CCCC2
-0.1%,Cc1ccc(Sc2ncccc2C(=O)N(C)Cc2cccs2)c(C)c1
-27.5%,CCOC(=O)c1cc(-c2ccccc2C)n(Cc2cc(C)no2)n1
-3.5%,O=C(COc1ccc(Cl)cc1)N1CCCCCCC1
1.7%,Cn1c(N)c(C(=O)COC(=O)c2ccc(F)cc2Cl)c(=O)n(C)c1=O
-5.7%,CSc1ccc(C(=O)NC2CCSc3ccccc32)cc1 (configuration not stated)
3.8%,O=C(C[C@@H]1C/C=C\C[C@@H](Cc2ccc(F)cc2)C(=O)OC[C@H]2CCCN2C1=O)NCCO
-6.8%,COc1ccc(-c2sc(NC(C)=O)nc2-c2ccccc2)cc1
-13.5%,COc1ccc(NC(=O)c2oc3ccccc3c2NC(=O)C23CC4CC(CC(C4)C2)C3)cc1
-15.1%,O=C(O)c1ccc2c(c1)NC(=O)C(N1CCCC1)S2 (configuration not stated)
-7.0%,COC(=O)C1=C(C)N(CC2CCCO2)C(=O)/C1=C\c1ccc(O)cc1 (configuration not stated)
1.8%,COc1nc(NCCc2ccc(OC)c(OC)c2)nc(NC(C)(C)CO)n1
-10.4%,Cc1cc2oc(=O)cc(CN3CCOCC3)c2cc1C
-1.6%,COc1cc(/C=C/C(=O)OCC(=O)NCCc2ccc(F)cc2)ccc1OC(F)F
-13.3%,Cc1cc(C)c(S(=O)(=O)N2CCN(C3CC(=O)N(c4ccccc4Cl)C3=O)CC2)c(C)c1 (configuration not stated)
-3.7%,O=C(Nc1ccnn1C1CCN(CCCC2CCCC2)CC1)c1ccccc1
-1.7%&1.4%,CC(C)CCNC(=O)c1ccc2c(c1)N(C)C(=O)c1ccccc1S2
-10.8%,CCCNS(=O)(=O)c1ccc(CCC(=O)Nc2cc(Cl)ccc2Oc2ccccc2)cc1
-8.9%,CC(=O)c1cc(-c2ccccc2)n(CCC(=O)NC2CCC(C)CC2)c1C (configuration not stated)
-17.4%,CN(c1cccc(Cl)c1)S(=O)(=O)c1cccc(C(=O)NC2=NCCS2)c1
2.0%,Cc1cc(NC(=O)C(C)SCC(=O)O)no1 (configuration not stated)
-3.9%,COC(=O)c1c(-c2c(Cl)cccc2Cl)noc1NC(=O)N(C)C
-1.2%,CCCc1nn2c(=O)cc(CSCC(=O)Nc3ccccc3)nc2s1
-8.5%,CCOc1ccccc1N1CCN(C(=O)c2ccc3[nH]c(C)c(C)c3c2)CC1

Carrying on:
KAT2A inh,smiles
-0.9%,Cc1c(C)c(C)c(S(=O)(=O)NCCc2ccccn2)c(C)c1C
-11.2%,CC(=O)c1ccc(S(=O)(=O)N2CCN(C(=O)c3ccc(COc4ccccc4)o3)CC2)cc1
-2.5%,COc1cc2ccccc2nn1
-2.3%,CCOC(=O)c1cccc(NC(=O)CSc2nnc(-c3ccoc3C)n2CCOC)c1
-4.6%,O=C(CN1CCOCC1)Nc1ncc(Cc2ccccc2Cl)s1
-2.9%,C=CCNC(=O)O/N=C/c1csc([N+](=O)[O-])c1
-6.3%,CC(=O)Nc1cccc(NC(=O)c2ccc3[nH]c(C)c(C)c3c2)c1
-4.3%,NC(=O)NC(CC(=O)NNC(=O)c1cccs1)c1ccc(Cl)cc1 (configuration not stated)
-0.2%,COc1cc(SC)ccc1C(=O)Nc1nccs1
-0.7%,CC1=C(C(=O)NCCc2ccc(Cl)cc2)C2(CCCCC2)OC1=O
-1.2%,CCOC(=O)c1ccc(N2C(=O)CC(C3CCCO3)C2=O)cc1 (configuration not stated)
-5.7%,Cc1ccc(S(=O)(=O)N2CCCCC2)cc1NC(=O)CSc1ncn[nH]1
-2.9%,COC(=O)CC(=O)N1CCN(c2ccc(Cl)c(Cl)c2)CC1
?,COc1ccc(Cl)cc1C(=O)NNC(=O)c1nc2nc(C)cc(C)n2n1
-3.2%,COC(=O)c1ccccc1S(=O)(=O)N1Cc2cc([N+](=O)[O-])ccc2Oc2ccccc21
-0.4%,O=C(CC1C(=O)NCCN1CC1CCCCC1)NCc1ccc(Cl)cc1 (configuration not stated)
-31.7%,COc1cccc(C(=O)COC(=O)C2CC(=O)N(c3ccc(Oc4ccccc4OC)cc3)C2)c1 (configuration not stated)
-1.6%,CS(=O)(=O)N(CC(=O)Nc1cccc(F)c1)c1cccc([N+](=O)[O-])c1
2.2%,O=C(CNc1ccccc1C(=O)O)c1ccccc1
-8.0%,CC(C)Oc1ccc(C(CC(=O)NCCCN(C)C)c2ccc(F)cc2)cc1 (configuration not stated)
1.2%,CCOc1cc(C(=O)OCC(=O)Nc2ccc(F)cc2Cl)ccc1OCC(=O)N1CCOCC1
-7.1%,CCN1C(=O)N(C)C2(c3ccccc3)N(C)C(=O)N(C)C12c1ccccc1 (configuration not stated)

Source: PubChem
